nsP2pro primary – inhibitors of chikungunya virus nsP2 protease; 1.1% of 31,000 active; Q8JUX6; Potency, µM (series often up to 24.9 µM), for inactives: at the highest dose activity change, negative = inhibition, actives largely listed as inhibitors; AID 1964107; FRET peptide cleavage, nsP2pro, fluorescence 1 h; active means well fitted inhibition curve with a large enough effect; inconclusive means small, poorly fitted or top-dose-only effect; inactive means no such curve, though single readings can be large or run the other way; note: nearly all actives have a fitted effect of over 60% in size; a reference inhibitor and vehicle were the controls
Starred values were filed as active, the others as inactive; i = inactive; ? = inconclusive; [ ] = dose if it differs, or a comment. % is set by controls: 0 for no effect and ±100 for the full control effect; potency is the fitted concentration of half-maximal effect.

cpd | compound | nsP2pro primary
1 | CCC(=O)N1CCc2cc(S(=O)(=O)NC(C(=O)NCc3ccccc3Cl)C(C)C)ccc21 (configuration not stated) | -18%
2 | COC1(C[S@@](=O)c2ccccc2)CCN(CCc2c[nH]c3ccc(F)cc23)CC1 | ?
3 | COCC(=O)N1CC(C(=O)NCc2ccncc2)C2(CCOCC2)C1 (configuration not stated) | i
4 | NC(=O)CC[C@H](NC(=O)Cc1ccccc1)C(=O)O | -20%
5 | CC1=CC(=O)CC(C)(C)[C@@]1(O)/C=C/C(C)O[C@@H]1O[C@H](CO)[C@@H](O)[C@H](O)[C@H]1O (some centres not stated) | -16%[10 µM]
6 | COCCNC(=O)[C@@H]1CCC[C@@H](NC(=O)CC(C)C)CN(C)C(=O)C1 | 8%[39.2 µM]
7 | CC1=C(C(=O)OC2CCCC2)C(c2cccc(Cl)c2Cl)CC(=O)N1 (configuration not stated) | -11%
8 | Nc1ccc(NC(=O)Nc2nnc(-c3ccncc3)s2)cc1C(F)(F)F | i
9 | CCN1CCN(C(=O)c2cc(-c3ccccc3OC)c3nncn3n2)CC1 | -4%[39.2 µM]
10 | CCOc1ccc(S(=O)(=O)Nc2ccc3c(c2)CCCN3C(=O)c2cccs2)cc1 | -12%
11 | O=[S+]([O-])(c1ccc2c(c1)OCCO2)N1CCN([S+](=O)([O-])c2c(F)cc(Br)cc2F)CC1 | -18%
12 | Cc1ccc(Cl)cc1N1CCN(C(=O)C2CCN(S(=O)(=O)c3ccc4c(c3)oc(=O)n4C)CC2)CC1 | -20%
13 | c1ccc(-n2cc(CN3CCCN(Cc4cccs4)CC3)nn2)cc1 | i
14 | COc1ccc(NC(=O)c2oc3ccccc3c2NC(=O)c2cc3ccccc3o2)c(OC)c1 | -18%
15 | Oc1cc(O)c2c(c1)O[C@H](c1ccc(O)c(O)c1)[C@@H](O)C2 | ?
16 | CC(C)OCCCNC(=O)Cc1ccc(NC(=O)N2CCCCc3ccccc32)cc1 | -17%
17 | O=C1CCCC2=C1C(c1ccccc1Br)N=C(Nc1nc3ccccc3o1)N2 (configuration not stated) | i
18 | CC(=O)O[C@@H]1C[C@]2(C)[C@@]3(CCC4[C@@]5(C)CC[C@H](O[C@@H]6O[C@H](C(=O)O)[C@@H](O)[C@H](OC7OC(CO)C(O)C(O)[C@H]7O[C@@H]7O[C@@H](C)[C@H](O)[C@@H](O)[C@H]7O[C@@H]7OC[C@](O)(CO)[C@H]7O)[C@H]6OC6OC(CO)C(O)C(O)C6O)C(C)(C)C5CC[C@]42C)OC[C@@]12CCC(C)(C)CC23 (some centres not stated) | 16%[5.1 µM]
19 | Cc1ccc(Cn2c(C(=O)O)c(CNCCc3cccs3)c3ccc(C)cc32)cc1 | -11%
20 | CCc1ccc(NC(=O)CN2C(=O)C3CCCN3c3ccc(S(=O)(=O)N(CC)CC)cc32)cc1 (configuration not stated) | -4%
21 | COC(=O)[C@@H]1Cc2ncn(Cc3ccc(Cl)cc3)c2CN1CCCc1ccccc1 | i
22 | Cc1ccc(N2CC(C)N(C(=O)c3ccc(-n4cnnn4)cc3)CC2=O)cc1 (configuration not stated) | i
23 | CCOc1cc(/C=C(\C#N)C(=O)Nc2ccc(OC)cc2)ccc1OCc1cc(=O)n2nc(CC)sc2n1 | -17%
24 | C[C@@H]1C(=O)O[C@H](C)[C@H]1CC(=O)[C@](C)(O)[C@H]1CC[C@@]2(O)C3=CC(=O)[C@@H]4C[C@@H](O)[C@@H](O)C[C@]4(C)C3CC[C@]12C (some centres not stated) | 19%[10 µM]
25 | CC(C)(C)CC(=O)NCC(c1ccc2c(c1)OCO2)N1CCOCC1 (configuration not stated) | -24%
26 | O=C(CSc1cn(CCNC(=O)c2cccc(C(F)(F)F)c2)c2ccccc12)Nc1ccc2c(c1)OCCO2 | -3%
27 | CC1CCN(C(c2ccc(F)cc2)c2ccc(C(C)C(=O)O)cc2-c2ccc(C(F)(F)F)cc2)CC1 (configuration not stated) | 29%
28 | CN1CCN(c2ccc(-c3cc(O)c4ncccc4c3)cc2)CC1 | i
29 | N#Cc1cccc(C(=O)N2CCCCC2CCn2cc(-c3ccccc3)nn2)c1 (configuration not stated) | 3%
30 | O=c1nc2c(-c3ccc(F)cc3Cl)n[nH]n2c2ccccc12 | -17%
31 | C[S+](=O)([O-])NCc1nnc2n1C(C(=O)NCc1ccc(Cl)cc1)CC2 (configuration not stated) | i
32 | COc1cccc(Cn2c(-c3nonc3NC(C)=O)nc3ccccc32)c1 | -13%
33 | O=C1CCc2cc(S(=O)(=O)Nc3ccc(F)c(Cl)c3)c(F)cc2N1 | -7%
34 | Cc1ccc(CNS(=O)(=O)c2ccc3[nH]c4c(c3c2)CCCC4)cc1 | -16%
35 | CCc1ccc(C2=CC(c3cccc(C)c3)n3c(nc4ccccc43)N2)cc1 (configuration not stated) | 9%
36 | CCc1ccccc1N(CC)C(=O)C1CCN(c2ncnc3c2nc2n3CCCCC2)CC1 | -7%
37 | COc1cc(-c2nnc(SCC(=O)Oc3ccccc3)o2)cc(OC)c1OC | -15%
38 | COc1ccc(N(C)C(=O)CCS(=O)(=O)c2cccc3nsnc23)cc1 | -24%
39 | Cc1ccc(OCc2cc(=O)n3ccsc3n2)c(NC(=O)c2ccco2)c1 | -16%
40 | Cc1cc(C(=O)NCc2ccccc2C)c2c(C)nn(-c3cccc(F)c3)c2n1 | -22%
41 | CCOc1ccccc1NC(=O)C(NS(=O)(=O)c1cccc2nsnc12)c1ccccc1 (configuration not stated) | -15%
42 | CCOC(=O)c1c(NC(=O)c2cc(CC(C)C)on2)sc(C(C)=O)c1C | -3%
43 | C[C@]12CC/C(=N\OCC(=O)O)C=C1CC[C@@H]1[C@@H]2[C@@H](O)C[C@@]2(C)[C@H]1CC[C@]2(O)C(=O)CO | 19%
44 | CCN(Cc1ccccc1)Cc1c(O)ccc2oc(C)c(C(=O)Nc3ccc(C)cc3C)c12 | -26%
45 | CCN1CCN(C(c2cccc(F)c2)c2c(O)cc(C)n(Cc3ccco3)c2=O)CC1 (configuration not stated) | ?
46 | NC(=O)CSc1oc(-c2ccco2)nc1S(=O)(=O)c1ccc(Br)cc1 | -23%
47 | COc1cccc(CNC(=O)C2CCCCc3nnc(-c4ccccc4)n32)c1 (configuration not stated) | 2%
48 | Nc1ncnc2c1ncn2[C@H]1O[C@@H](C(=O)N2CCN(CC(=O)Nc3cccc4c3CNC4=O)CC2)[C@H](O)[C@@H]1O | -10%
49 | COC(=O)C1CCN(C(c2ccccc2Cl)c2sc3nc(-c4ccco4)nn3c2O)CC1 (configuration not stated) | -14%
50 | CCOC(=O)c1nn(-c2ccccc2)c(=O)c2c(N)sc(C)c12 | ?

Next structures follow.
cpd | compound | nsP2pro primary
51 | Nc1ccccc1NC(=O)CCCCCCC(=O)Nc1ccccc1 | 8%
52 | COc1ccc(-c2nc3ccccc3o2)cc1NC(=O)c1ccc(N2CCC(C)CC2)c([N+](=O)[O-])c1 | -4%
53 | O=C(Nc1ccc([S+](=O)([O-])Nc2nccs2)cc1)c1ccn[nH]1 | i
54 | COc1cccc(C2=Nn3c(nnc3-c3cc(OC)cc(OC)c3)SC2)c1 | i
55 | Cc1cccc(N2CCN(C(=O)Cn3cnc4sc(C)c(S(=O)(=O)N5CCN(c6ncccn6)CC5)c4c3=O)CC2C)c1 (configuration not stated) | -18%
56 | COCCCNc1nc(-c2cccnc2)nc2c1CNC2 | -4%
57 | Cc1cn2nc(C(=O)NC3CCCCCC3)cc2c(N2CCSCC2)n1 | 4%
58 | COC1C(CO)OC(n2cnc3c(=O)[nH]cnc32)C1O (configuration not stated) | 14%
59 | O=C(O)c1cccc(-c2noc(-c3cccc(C(F)(F)F)c3)n2)c1 | i
60 | CCCS(=O)(=O)N1CC(=O)N(c2ccccc2C)C(C)(C(=O)NC2CCCCC2)C1 (configuration not stated) | -8%
61 | COc1ccc(CCNC(=O)c2cnn(-c3ccc(F)cc3)c2C2CCN(C(=O)OC(C)(C)C)CC2)cc1OC | -17%
62 | COc1ccc(CNC[C@H]2O[C@H](Cc3cc(COc4ccccc4)on3)CC[C@@H]2O)cc1 | i
63 | Cc1ccc(-c2nc(C)c(CCNC(=O)c3ccco3)s2)cc1 | -30%
64 | CCOC(=O)c1c(NC(=O)CSc2cn(CCNC(=O)c3c(F)cccc3F)c3ccccc23)sc2c1CCC2 | -6%
65 | COc1ccccc1-c1cc(C(=O)N2CCOCC2)nc2c1cnn2C | -2%
66 | O=C(Nc1ccccc1C(F)(F)F)N1CCCC(Cn2cnc3cccnc32)C1 (configuration not stated) | i
67 | CC(C)(Cc1ccc(F)cc1)NC(=O)CC1C(=O)NCCN1Cc1ccoc1 (configuration not stated) | ?
68 | CC(=O)O[C@H](C[C@@H](C)[C@H]1C(=O)[C@H](O)[C@@]2(C)[C@@H]3CCC4C(C)(C)[C@@H](O[C@@H]5OC[C@H](O)[C@H](O)[C@H]5O)CC[C@@]45C[C@@]35CC[C@]12C)[C@@H]1OC1(C)C (some centres not stated) | -10%[10 µM]
69 | Cc1cc(N[S+](=O)([O-])c2cc3c(cc2Cl)NC(=O)CO3)ccc1Br | -16%
70 | O=C(Nc1ccc(F)cc1)c1c[nH]c2cccnc12 | i
71 | O=C(NCc1cccs1)c1ccc(Cn2c(SCc3ccc(F)cc3)nc3cccnc32)cc1 | 23%
72 | COc1ccc(C2(C#N)CCC(C(=O)O)CC2)cc1OC1CCCC1 (configuration not stated) | ?
73 | CCCS(=O)(=O)Nc1ccc(F)c(C(=O)c2c[nH]c3ncc(Cl)cc23)c1F | 16%
74 | CN1CCN(c2nc3ccccc3nc2Cl)CC1 | 7%
75 | COc1ccc(CCc2nc3cc(-c4c(C)noc4C)ccc3n2CC(C)N2CCOCC2)cc1Cl (configuration not stated) | 24%
76 | O=C(NC1CCCCC1)N[C@H]1CO[C@H]2[C@@H]1OC[C@@H]2n1cc(-c2ccccn2)nn1 | -7%[39.2 µM]
77 | Cc1ccc(S(=O)(=O)N(CC(O)Cn2c3ccccc3c3ccccc32)c2cccc(C(=O)NCCO)c2)cc1 (configuration not stated) | 39%[activator]
78 | Cc1ccccc1CCNC(=O)C1CCN(c2nc3ccccc3nc2C(F)(F)F)CC1 | -17%
79 | Cc1ccc(CN2CC(Cn3c(C)cnc3-c3ccncc3)C2)o1 | i
80 | COc1ccc(CCNc2ncnc3c2CN(C2CCC2)C(=O)N(C)C3)cc1 | -1%
81 | O=C(CSc1nnc(-c2cccc([S+](=O)([O-])N3CCCC3)c2)n1-c1ccccc1)Nc1cccc(C(F)(F)F)c1 | -11%
82 | O=C1CCCC2=C1C1(CCSCC1)N=C(Nc1nc3ccccc3o1)N2 | i
83 | Cc1ccc(C)c(N2CCN(C(=O)c3cc4c(=O)n(Cc5cccnc5)ccc4nc3C)CC2)c1 | -3%
84 | CC(NC(=O)c1ccc2c(c1)sc1nc(-c3ccccc3)cn12)C12CC3CC(CC(C3)C1)C2 (configuration not stated) | -12%
85 | CCOC(=O)C(C)(C)Oc1ccc(Cl)cc1 | 11%
86 | O=C(O)CCc1ccc(-c2ccccc2)n1CC(=O)Nc1ccccc1C(F)(F)F | ?
87 | Cc1cnc(C2CCOCC2)n1C1CCNCC1 | i
88 | CCOC(=O)c1ccc(-c2ccc3ncnc(NCc4ncc[nH]4)c3c2)o1 | i
89 | CC[C@]12C=CCN3CC[C@@]4(c5cc([C@@]6(C(=O)OC)C[C@H]7C[C@@H](C(C)(F)F)CN(Cc8c6[nH]c6ccccc86)C7)c(OC)cc5N(C)[C@H]4[C@@](O)(C(=O)OC)[C@@H]1OC(C)=O)[C@@H]32 | -7%[10 µM]
90 | CCc1ccc(S(=O)(=O)NCc2ccc3c(c2)CCN3C(=O)c2ccc(C)cc2)cc1 | -27%
91 | COc1ccc(C(=O)Nc2ccc(-c3nc4ccccc4[nH]3)cc2)cc1C(F)(F)F | 0%
92 | Cc1csc2c(N[C@@H](C)CN3CCN(S(=O)(=O)c4ccc(Cl)c(Cl)c4)CC3)ncnc12 | -1%
93 | CN1C[C@H](C(=O)N[C@]2(C)O[C@@]3(O)[C@@H]4CCCN4C(=O)[C@H](Cc4ccccc4)N3C2=O)C=C2c3cccc4[nH]cc(c34)C[C@H]21 | ?
94 | COCCNCc1ccc(-c2cc3nccc(Oc4ccc(NC(=O)C5(C(=O)Nc6ccc(F)cc6)CC5)cc4F)c3s2)nc1 | 136%[activator]
95 | COC(=O)c1cc(NC(=O)c2ccc(-c3ccc(Cl)cc3Cl)o2)cc(C(=O)OC)c1 | -15%
96 | CCn1cc(CN2C[C@@H](CO)[C@H](NC(=O)COC)C2)c2ccccc21 | -13%
97 | CN(C)CCOC(c1ccc(Cl)cc1)c1ccccn1 (configuration not stated) | 29%
98 | CCN(CC)CCSc1nnc2c3cc(F)ccc3n(C)c2n1 | -7%
99 | C[C@@]1(O)[C@H](O)[C@@H](CO)O[C@H]1n1ccc(N)nc1=O | -2%[39.2 µM]
100 | CC1=CC(=O)C2C(C)(C)CC(O)CC2(C)C1CO (configuration not stated) | ?

Of the compounds above, these contain a furan ring, fused or not:
cpd | compound | nsP2pro primary
14 | COc1ccc(NC(=O)c2oc3ccccc3c2NC(=O)c2cc3ccccc3o2)c(OC)c1 | -18%
39 | Cc1ccc(OCc2cc(=O)n3ccsc3n2)c(NC(=O)c2ccco2)c1 | -16%
44 | CCN(Cc1ccccc1)Cc1c(O)ccc2oc(C)c(C(=O)Nc3ccc(C)cc3C)c12 | -26%
45 | CCN1CCN(C(c2cccc(F)c2)c2c(O)cc(C)n(Cc3ccco3)c2=O)CC1 (configuration not stated) | ?
46 | NC(=O)CSc1oc(-c2ccco2)nc1S(=O)(=O)c1ccc(Br)cc1 | -23%
49 | COC(=O)C1CCN(C(c2ccccc2Cl)c2sc3nc(-c4ccco4)nn3c2O)CC1 (configuration not stated) | -14%
63 | Cc1ccc(-c2nc(C)c(CCNC(=O)c3ccco3)s2)cc1 | -30%
67 | CC(C)(Cc1ccc(F)cc1)NC(=O)CC1C(=O)NCCN1Cc1ccoc1 (configuration not stated) | ?
79 | Cc1ccc(CN2CC(Cn3c(C)cnc3-c3ccncc3)C2)o1 | i
88 | CCOC(=O)c1ccc(-c2ccc3ncnc(NCc4ncc[nH]4)c3c2)o1 | i
95 | COC(=O)c1cc(NC(=O)c2ccc(-c3ccc(Cl)cc3Cl)o2)cc(C(=O)OC)c1 | -15%

Not all compounds are listed. The share of hits here may be higher or lower than overall.
